PrP 5UTR inh: inhibition of PrP 5' UTR reporter expression. cell-based PrP 5' UTR mRNA reporter, plate reader. inhibition, % (no concentration beside the values). actives 0.35% (n = 340,000). AID 488862;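 active = every replicate at 50% or more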;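 also: 0 = median of the neutral control wells; tested in H4 reporter cells; numbers are from one replicate; inactives centre near -14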
Sa RN4220 lethal: S. aureus RN4220 growth inhibition; actives 0.33% (n = 330,000); OD600, 16 h; inhibition, % (test concentration not listed); AID 1259311;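 active = z-score of -3 or lower and OD600 up to 0.18 on both plates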;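 also: plate controls were untreated cells for no effect and reference antibiotic for full effect; stock transfer was 100 nL into about 80 µL; one replicate is shown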
ugtP null kill: compounds lethal to S. aureus RN4220 ugtP deletion mutant; OD600 growth, 16 h; some inactives read as strong as hits; growth inhibition, % (test concentration not listed); actives 0.54% (n = 330,000); AID 1259309;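 active = z-score under -3 and OD600 up to 0.15 on both plates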;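 also: plate controls were untreated wells for no effect and antibiotic for full effect; wells of about 80 µL received 100 nL stock; the first replicate is given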
BJeLR lethal: kills HRASV12-expressing BJeLR cells. BJeLR (HRASV12) viability, CellTiter-Glo ATP luminescence, 48 h; reference of the scale not given here. inhibition, % (test concentration not listed). actives 0.17% (n = 300,000). AID 1554;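 active = replicate mean above 50%; inconclusive = above 50% but judged a plate artefact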;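 also: 50 nL library stock added to about 25 µL; numbers are from one replicate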
Mtb hypoxia inh: Mtb hypoxia fluorescent reporter inhibition | M. tuberculosis hypoxia-regulated fluorescent reporter, fluorescence | fluorescence inhibition, % (test concentration not listed) | actives 0.1% (n = 300,000) | AID 1159583;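 active = 35 to 45% if threefold the growth effect, above 45% if 1.5-fold the growth effect; inactive = the rest, general growth blockers included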;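 also: wells of about 50 µL received 100 nL stock; 0% = vehicle wells and 100% = reference inhibitor wells; whole bacteria with a GFP reporter of the hypoxia response; strong numbers were not always called active; many hits fall short of the cut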
Autofluor counter: flagged as autofluorescent in microsphere protease counterscreen; compound autofluorescence counterscreen, microsphere flow cytometry; active compounds read high; actives 3.1% (n = 360,000); fluorescence intensity (no concentration beside the values);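 active = at least 3 SD above the mean of all compounds, about 16000 in these data; inconclusive = too few beads counted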;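 also: 100 nL of 1 mM stock went into each well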
Mtb hypoxia inh growth: also measured in Mtb hypoxia inh; calls as there; growth inhibition, %; measured here: M. tuberculosis growth (absorbance);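 0% = vehicle and 100% = reference antibiotic; read after six days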
* hit, by the source's call; u = inconclusive; x = no result given. Rows were taken by chance (roughly 3.9% active in at least one column).

structure	PrP 5UTR inh	Sa RN4220 lethal	ugtP null kill	BJeLR lethal	Mtb hypoxia inh	Mtb hypoxia inh growth	Autofluor counter
Cc1ccc(/C=N/NC(=O)C(C)Oc2ccccc2[N+](=O)[O-])s1 (stereo not drawn)	-33	x	x	-7	x	x	10291
CCCCCCCCC(=O)N/N=C/c1ccccn1	-2	x	x	1	x	x	9956
COc1ccc(-c2noc(CN(C)Cc3ccccc3)n2)cc1	-12	3.4	14	-6	7	6	2945
CCC(C)Nc1nc2c(c(=O)[nH]c(=O)n2C)n1CCOc1ccccc1 (stereo not drawn)	-16	-4.0	0	-4	1	-6	3915
O=C(NCCSc1ccccc1)c1ccccc1Cl	-102	4.9	-1	1	15	9	2105
COc1cccc(NC(=O)c2nnn(CCc3ccccc3)c2N)c1	-32	3.4	1	-8	x	x	4347
CCOc1ccc(C(=O)Cn2cnc3ccccc3c2=O)cc1	-24	1.1	5	3	1	-9	4271
COc1ccc(C(CC(=O)N2CCCC(C)C2)c2c(O)cc(OC)cc2OC)cc1 (stereo not drawn)	-7	0.4	-1	2	2	10	2888
CS(=O)(=O)N(CCc1ccccc1)CC(=O)N1CCCC1	-12	3.1	1	-7	4	8	5214
CN(C(=O)COC(=O)c1ccccc1Cc1ccccc1)c1c(N)n(Cc2ccccc2)c(=O)[nH]c1=O	-15	0.0	6	0	-2	-2	u
Nc1cccc(C(=O)OCC(=O)c2ccccc2)c1	-64	4.3	3	-6	7	-2	2523
COc1ccc(-n2nnnc2/C=C\Nc2ccc(C)cc2)cc1	-31	5.3	20	2	-3	7	4769
Clc1cccc(Nc2ncnc3c2cnn3-c2ccccc2)c1	-52	24	24	0	9	10	5322
COc1ccc(S(=O)(=O)NCC2CCCN(C(=O)c3occc3C)C2)cc1 (stereo not drawn)	1	3.8	15	0	20	26	4350
Cc1ccc(Br)cc1S(=O)(=O)Nc1cccnc1	-9	6.8	-3	7	3	-1	3164
COc1cc(CCN2C(=O)NC(CCc3ccccc3)C(C(C)=O)=C2C)cc(OC)c1OC (stereo not drawn)	x	6.7	7	x	-1	4	x
Cc1cn(C(CCCCN)C(=O)NCCCCCCCCCCC(=O)N2CCNCC2)nn1 (stereo not drawn)	x	8.1	-1	x	15	10	x
COc1cc(/C=C/C(=O)OCc2cn3cc(Cl)ccc3n2)ccc1O	-8	3.3	5	10	4	4	3539
COc1ccccc1CC(=O)c1ccc(OCc2ccccc2)cc1	-24	15	26	1	9	-1	3159
CCOc1ccc(NC(=O)CN2C(=O)C(C)SC(C)C2=O)cc1 (stereo not drawn)	-4	3.2	10	3	11	9	3388

Shown as labelled records: 4 of the compounds above.
CS(=O)(=O)N(CCc1ccccc1)CC(=O)N1CCCC1
  PrP 5UTR inh = -12
  Sa RN4220 lethal = 3.1
  ugtP null kill = 1
  BJeLR lethal = -7
  Mtb hypoxia inh = 4
  Mtb hypoxia inh growth = 8
  Autofluor counter = 5214

COc1cc(CCN2C(=O)NC(CCc3ccccc3)C(C(C)=O)=C2C)cc(OC)c1OC (stereo not drawn)
  PrP 5UTR inh = x
  Sa RN4220 lethal = 6.7
  ugtP null kill = 7
  BJeLR lethal = x
  Mtb hypoxia inh = -1
  Mtb hypoxia inh growth = 4
  Autofluor counter = x

Cc1cn(C(CCCCN)C(=O)NCCCCCCCCCCC(=O)N2CCNCC2)nn1 (stereo not drawn)
  PrP 5UTR inh = x
  Sa RN4220 lethal = 8.1
  ugtP null kill = -1
  BJeLR lethal = x
  Mtb hypoxia inh = 15
  Mtb hypoxia inh growth = 10
  Autofluor counter = x

CCOc1ccc(C(=O)Cn2cnc3ccccc3c2=O)cc1
  PrP 5UTR inh = -24
  Sa RN4220 lethal = 1.1
  ugtP null kill = 5
  BJeLR lethal = 3
  Mtb hypoxia inh = 1
  Mtb hypoxia inh growth = -9
  Autofluor counter = 4271

(next part)
structure	PrP 5UTR inh	Sa RN4220 lethal	ugtP null kill	BJeLR lethal	Mtb hypoxia inh	Mtb hypoxia inh growth	Autofluor counter
COc1ccc(NC(=O)COC(=O)C2C3CC4OC(=O)C2C4C3)cc1 (stereo not drawn)	-15	3.6	-5	6	-1	-1	3623
O=C(NCCc1ccc(Cl)cc1)c1ccc(S(=O)(=O)N2CCCC2)cc1	1	1.4	1	0	-8	8	u
Cc1ccccc1CN1CCC(n2nccc2NC(=O)c2ccc3c(c2)OCO3)CC1	-25	-0.5	4	6	2	13	6161
Cc1cc2c(cc1S(=O)(=O)CCC(=O)N1CC(C)CC(C)C1)OCC(=O)N2 (stereo not drawn)	6	8.2	7	-2	4	3	4818
CN(C)S(=O)(=O)Oc1ccc(C(=O)Nc2cccc(C(F)(F)F)c2)cc1	-27	-2.4	-8	7	-2	6	2204
COc1cc(F)cc(-c2ccc3c(c2)c(-c2cccs2)c(-c2cc(OC)cc(OC)c2)n3C)c1	-10	2.2	-19	x	15	11	3841
COc1cccc(C(=O)Nc2nnc(SCC(=O)NC3CC3)s2)c1	-10	1.5	8	-5	-1	5	5650
COc1cc2c(cc1OC)CN(C(=O)CCNS(=O)(=O)c1ccc(Br)cc1)CC2	-50	0.8	-1	-2	6	2	u
CN(C)c1cc(NC(=O)CN2CCOCC2)c2ccccc2n1	-1	1.6	-5	0	-1	3	4896
C=C(C)Cn1c(NCCOC)nc2c1c(=O)[nH]c(=O)n2C	-17	0.4	3	4	x	x	3036
CC(/C=N/n1c(COc2ccccc2)n[nH]c1=S)=C\c1ccccc1	-9	x	x	-2	x	x	9652
COc1ccc(CN(C)C(=O)c2cccc(NS(=O)(=O)c3ccccc3)c2)c(OC)c1	1	5.5	-3	-7	10	-1	5114
CCN(CC)S(=O)(=O)c1ccc(NCC2COc3ccccc3O2)c([N+](=O)[O-])c1 (stereo not drawn)	-4	1.3	10	-7	7	3	3353
N#Cc1ccc(NC(=O)Cn2c3[n+](c4ccc(C(F)(F)F)cc42)CCCCC3)cc1	-9	2.1	-1	-8	5	9	5130
COc1ccc(C2(C(=O)Nc3nncs3)CCCC2)cc1	5	4.9	1	6	1	5	22722*
COc1ccccc1-n1c(CNc2ccc(F)cc2)nnc1SCC(=O)Nc1cc(C)on1	3	-10	-8	-4	1	-1	3275
CCOc1ccc(NC(=S)/C(=C(\[O-])c2ccc(C)c([N+](=O)[O-])c2)[n+]2ccccc2)cc1	-25	2.8	-2	-4	x	x	4794
O=C(NC1CC1)c1ccc(CS(=O)c2ccccc2)o1 (stereo not drawn)	-16	1.4	-6	-8	x	x	5833
CSc1ccccc1NC(=O)Nc1ccc(Cl)cc1	-35	-1.1	-3	11	-11	4	20588*
O=C(/C=C/c1ccccc1)CC(O)(c1ccccc1)C(F)(F)F (stereo not drawn)	4	0.4	1	1	11	6	5474
Cc1cc(C(=O)CSc2n[nH]c(N)n2)c(C)n1-c1ccccc1	-29	2.0	10	-14	-3	0	16214*
CNC(=S)Nn1cnc2ccccc21	13	2.4	0	-2	-2	3	3441
CC1=C(C(=O)O)N2C(=O)C(NC(=O)c3nn(C)c(C)c3Cl)C2SC1 (stereo not drawn)	1	19	23	3	1	6	4338
O=c1c2c(nc3cc(-c4ccc(Br)cc4)[nH]n13)CCCC2	-66	8.1	10	5	3	5	3407
CCN(CC(=O)NCc1cccs1)C(=O)/C=C/c1ccc(Cl)c(Cl)c1	-14	1.2	1	-2	7	7	5620
Cc1ccccc1OCc1nnc(SCC(=O)NCc2ccco2)n1C	-33	4.1	-5	4	5	11	4053
O=C(NCCc1ccccc1)C(=O)NCC1CCCN1S(=O)(=O)c1cccs1 (stereo not drawn)	-15	3.4	6	20	1	-4	u
N#Cc1cnc(SCCc2ccccc2)nc1N	-2	3.4	-4	9	1	2	4585
CC(=Nc1ccc(C)c(C)c1)C1=C(O)CSC1=O	-83	2.4	-4	1	x	x	5441
CCCCn1c(SCC(=O)NCc2ccco2)nc2ccccc2c1=O	-2	-2.0	-8	-8	16	3	x
COc1cccc(CN2CCC(n3nccc3NC(=O)C3CC3)CC2)c1	-19	3.7	7	10	5	4	5548
COC(=O)[C@H](C(C)C)n1c(C)c(C(C)=O)c(C(C)=O)c1C	-58	2.0	-13	-4	x	x	2711
CS(=O)(=O)N(CC(=O)N1CCN(c2ccccc2)CC1)C1CCCCC1	-22	2.8	0	-4	16	7	4192
O=C(O)Cn1c(=O)c(-c2ccccc2)nc2ccccc21	-10	0.0	6	-11	5	6	3637
CCn1c(=O)c2c3c(sc2n2c(SCc4ccc(F)cc4)nnc12)CCCC3	-6	2.0	0	-3	15	9	4409
Cc1nc2ccccc2c(=O)n1Cc1ccc([N+](=O)[O-])cc1	-11	2.6	6	-3	10	11	3718
C#CCCOC(=O)N1C2=NC(C(=O)OC)=C(C(=O)OC)[C@@H]3N(C)c4ccc(OC)cc4[C@]23C[C@H]1C(=O)OC	-3	x	x	2	x	x	3936
Cc1cc(C)c(NC(=O)CS(=O)CC(=O)Nc2cccnc2)c(C)c1 (stereo not drawn)	-19	0.1	-1	10	-5	5	4193
CC(=O)N1c2ccc(S(=O)(=O)N3CCCCC3)cc2CC1C(=O)NCc1ccccc1C (stereo not drawn)	-5	0.9	7	0	5	3	5010
O=c1[nH]c(CN2CCCCC2)nc2ccccc12	-17	-8.5	-4	-4	17	6	2771
COc1ccc(N2CCN(C(=O)COC(=O)c3ccco3)CC2)cc1	-5	1.4	-1	1	2	-1	4606
C/C(CC(=O)NC1CCCCC1)=N\NC(=O)Cc1ccc(-c2ccccc2)cc1	-20	x	x	3	x	x	4412
O=C(O)c1c2c(nc3ccccc13)/C(=C/c1ccccc1[N+](=O)[O-])CCC2	-27	1.9	1	4	2	-7	4434
CC(=O)Oc1ccc(C(=O)Nc2ccc3c(c2)OCCO3)cc1	-37	1.5	13	4	3	2	2999
CC1CC(=O)NN=C1c1cccs1 (stereo not drawn)	-16	3.8	12	3	6	6	3717
O=C(O)CCCC(=O)N1CCN(C(c2ccccc2)c2ccccc2)CC1	-29	0.6	8	-1	7	2	2139
OCCN1CCOCCOCCN(CCO)CCN(CCO)CC1	-4	-0.7	4	2	0	6	3916
O=C(CCC1CC(=O)Nc2ccccc21)NCc1cccnc1 (stereo not drawn)	-10	2.3	10	10	4	6	4326
O=C1C=CN(Cc2ccccc2)C(c2ccccc2)C1 (stereo not drawn)	-7	5.0	11	x	24	9	3026
O=C(CSc1nc2c(sc3ccccc32)c(=O)n1-c1ccccc1)NCc1ccco1	1	-0.6	4	-7	9	9	2015
COc1ccccc1N1CCN(Cc2c(F)cccc2F)CC1	-19	0.8	1	4	4	7	14608
COc1cccc(-c2sc3ccc(OC)cc3c2C#CC(C)(C)O)c1	-17	-14	-11	x	18	12	2961
CN(C)S(=O)(=O)c1cc(NC(=O)c2cc(=O)[nH]c3ccccc23)ccc1Cl	x	2.3	-3	-6	-8	9	x
Cc1cc(C)n(CC(=O)c2ccc(Cl)cc2)n1	-23	4.0	2	29	3	-3	4388
O=C(NCCCN1CCOCC1)c1ccc(CSCc2cccc(Cl)c2)o1	-25	2.8	3	-1	5	-5	3669
O=C(CCCN1C(=O)c2ccccc2C1=O)N1CCN(c2ccccn2)CC1	-3	2.8	12	-8	5	-6	6278
Cc1ccc(-c2nc(S(=O)(=O)c3ccc(C)cc3)c(SCC(N)=O)o2)cc1	-7	1.2	8	-12	1	2	16360*
Cc1ccc(CSc2nc3c(c(=O)[nH]2)CCC3)cc1	-5	3.1	9	-4	4	3	20993*
Cc1cccc(NC(=O)C2CCCN2/C=C/C(=O)C(F)(F)F)c1C (stereo not drawn)	-21	0.5	0	-3	-4	0	2625
CC(C)(C)NC(=O)c1ccc2nsnc2c1	-11	2.0	15	-2	25	22	2099
CCn1nc(C)c(CNC(=O)Nc2ccc3c(c2)OCO3)c1C	-36	16	4	2	14	8	4803
O=C(Nc1ccon1)c1ccc(OC2CCCC2)cc1	-84	3.2	8	-3	11	2	9885
COc1cccc(OCc2cc(C(=O)NC(C)c3cnn(C)c3C)no2)c1 (stereo not drawn)	-14	1.8	2	3	3	5	5519
